# Menin-MLL FL inh: displaces fluorescein MLL peptide from human menin. Fluorescence polarization, fluorescein-MLL peptide displacement from menin. FP activity change, % at 61.4 µM. 290,000 tested, under 10 active. AID 1766; inconclusive = falling polarisation curve, or a change in total fluorescence; inactive = total fluorescence flat and polarisation flat or rising; no compound was filed as active; the % refers to the polarisation; negative = inhibition;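 note: % of control where 0% means no effect; inhibitors lower the polarisation; unlabelled MLL peptide was the positive control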
# gsp agonist: gsp mutant agonism; gsp mutant cells, cAMP HTRF, 30 min; control for the full effect not named in the record; Potency, µM (highest dose often 76.9 µM), without a hit: at the top dose activation (cAMP increase), actives largely listed as activators; 340,000 tested, 0.13% active; AID 624287; active = well fitted activation curve with a large enough effect; inconclusive = small, poorly fitted or top-dose-only effect, or another doubt; inactive = no such curve, though single readings can be large or run the other way; cell line not stated here;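 note: phosphodiesterase inhibitor Ro 20-1724 added with compounds to block cAMP breakdown; potency is the fitted concentration of half-maximal effect; nearly all actives have a fitted effect of over 60% in size; about a fifth of the inactives were tested at one dose only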
#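 Cells in DMEM/10% FBS with G418 were pretreated with compounds in DMSO plus […] (300 uM stock) for 30 min at 37C. cAMP was measured by HTRF (cAMP-d2 plus anti-cAMP antibody-K) after 30 min at room temperature.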
# gsp antag: gsp mutant antagonism. Potency, µM (series often up to 76.9 µM), for inactives: top-dose activity change, negative = inhibition, actives largely listed as inhibitors. 340,000 tested, 0.4% active. gsp-mutant cells, cAMP HTRF, 30 min; control for the full effect not named in the record; active = falling curve of any shape with a large fitted effect; inconclusive = falling curve, mostly with a smaller effect; inactive = flat or rising curve; cell line not stated here;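 note: intracellular cAMP measured with PDE inhibitor Ro 20-1724 present during compound exposure; potency is the fitted concentration of half-maximal effect; % is set by controls: 0 for no effect and ±100 for the full control effect; nearly all actives have a fitted effect of over 65% in size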
#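 HTRF cAMP measurement after 30 min RT detection following 30 min, 37C compound treatment alongside […] (added as 300 uM solution) in G418-selected cells seeded at 2000/well and grown 16–24 h.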
# ClpP mod: qHTS Assay for Activators of ClpP; ATP-dependent Clp protease proteolytic subunit (Bacillus subtilis (strain 168)), P80244; purified B. subtilis ClpP, FRET peptide cleavage, 20 min; Potency, µM (titrated, usually from 57.5 µM), without a hit: at the highest dose activity change, negative = active; 340,000 tested, 1.9% active; active = well fitted falling curve with a large enough effect; inconclusive = small, poorly fitted or top-dose-only effect; inactive = no such curve, though single readings can be large or run the other way; note: potency is the fitted concentration of half-maximal effect; the source files actives as falling curves though it sought activators and does not explain the sign; nearly all actives have a fitted effect of over 65% in size; many hits overshoot -100%
# Target sequence (P80244 whole entry, looked up): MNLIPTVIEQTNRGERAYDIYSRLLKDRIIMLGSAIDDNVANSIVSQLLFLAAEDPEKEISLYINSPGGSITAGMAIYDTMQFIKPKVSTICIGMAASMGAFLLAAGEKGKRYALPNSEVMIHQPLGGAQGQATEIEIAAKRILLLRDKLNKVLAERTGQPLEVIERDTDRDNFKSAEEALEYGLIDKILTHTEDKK
#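 Purified B. subtilis ClpP, 10 microg/mL final in Tris/HCl pH8 with KCl, BSA, glycerol and Tween-20, cleaved an Abz/nitrotyrosine-quenched decapeptide. Fluorescence (ex 320, em 430) was read at 0 and 20 min at room temperature. Delta was normalized to 5.8 microM ADEP and DMSO/no-enzyme controls.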
# TRPML1 ag: agonists of human TRPML1 channel. activation, % (test concentration not listed). Q9GZU1. 410,000 tested, 0.12% active. AID 624414. TRPML1-expressing cells, Ca2+ dye fluorescence, FDSS; host cell line not named in the record; reference of the full effect not given here; in the data active = activation above about 50%; inconclusive = about 30% to 50%; inactive = below about 30%; note: 0% is about no effect; the text of the record puts the active cut at 80%
# Target sequence (Q9GZU1 whole entry, looked up): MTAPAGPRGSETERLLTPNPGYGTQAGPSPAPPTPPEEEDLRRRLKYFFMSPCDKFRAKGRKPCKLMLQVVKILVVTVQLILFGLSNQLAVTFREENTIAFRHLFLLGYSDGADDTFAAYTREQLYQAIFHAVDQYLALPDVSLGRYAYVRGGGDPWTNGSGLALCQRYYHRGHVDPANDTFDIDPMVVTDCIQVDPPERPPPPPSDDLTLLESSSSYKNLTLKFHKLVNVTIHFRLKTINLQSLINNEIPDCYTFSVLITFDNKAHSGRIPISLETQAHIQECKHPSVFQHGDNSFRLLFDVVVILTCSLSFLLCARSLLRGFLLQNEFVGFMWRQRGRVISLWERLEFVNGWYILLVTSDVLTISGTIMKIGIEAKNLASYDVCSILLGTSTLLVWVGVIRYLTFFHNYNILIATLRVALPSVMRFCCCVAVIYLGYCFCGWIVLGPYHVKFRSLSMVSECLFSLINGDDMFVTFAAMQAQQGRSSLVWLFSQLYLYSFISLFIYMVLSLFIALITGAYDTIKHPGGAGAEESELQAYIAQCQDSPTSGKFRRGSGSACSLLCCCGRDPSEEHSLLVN
#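 Kinetic FDSS Ca2+ read in Tet-induced TRPML1-DL cells (ABD Ca8 dye plus quencher, 45-90 min RT loading): baseline, then compound, then 110 s agonist window; EC80 agonist 54-4 at 4uM final added afterwards for a 110 s antagonist window.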
# TRPML1 blocker: blocks the human TRPML1 channel | Q9GZU1 | TRPML1-inducible cells, Ca2+ dye fluorescence, FDSS; hits give low values; inhibition of EC80 agonist-evoked calcium signal | activity change, negative = inhibition, % (test concentration not listed) | 390,000 tested, 0.02% active | AID 624415; in the data active means activity change below about -50%; inconclusive means about -30% to -50%; inactive means above about -30%;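 note: stimulus is agonist 54-4 at its EC80 concentration; % is set by controls: 0 for no effect and ±100 for the full control effect; compound concentration not given in the record; the text of the record puts the active cut at -80%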
#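 TRPML1-DL cells, Tet-induced overnight (~16 h, 37 °C) at 1,500 cells/well, were loaded with Ca8 no-wash dye plus quencher for 45-90 min at room temperature. Compounds were pinned during FDSS kinetic reading; agonist 54-4 at EC80 (4 uM final) then added.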
# Starred values were filed as active, the others as inactive; ? = inconclusive; · = not tested or not shown; [ ] = another dose, or the depositor's remark. An unsorted share of the library; overall some 2.1% were active at least once.
Structure	Menin-MLL FL inh	gsp agonist	gsp antag	ClpP mod	TRPML1 ag	TRPML1 blocker
Cc1ccc(S(=O)(=O)N(C)C)cc1NC(=O)Cn1c(CN2CCOCC2)nc2ccccc2c1=O	-0.8	4.0%	-13.0%	-0.4%	2.7	-0.6
O=C(COc1ccccc1N1C(=O)C2C3C=CC(C3)C2C1=O)c1ccccc1 (stereo unspecified)	6.0	-5.6%[15.4 µM]	5.3%	1.3%	0.0	-9.1
Cc1nc(NC(=O)CSC2=NCCS2)sc1C(=O)N(C)C	·	-7.5%	4.7%	-3.9%	0.0	23.8
COc1cc(NC(=O)c2ccco2)c(C(=O)O)cc1OC	2.0	?	-16.1%	-3.6%	-0.6	-7.5
CNC(=O)NC(=O)Cn1cnc2sc(-c3ccccc3)cc2c1=O	2.5	-27.4%[15.4 µM]	-1.4%	·	0.5	-1.7
COc1cc(NC(=O)N2CCN(c3cc(-c4noc(C)n4)ccc3C)CC2)cc(OC)c1OC	·	·	·	-1.1%	2.9	-2.6
Cc1ccc(NC(=O)NCC2CC2(Cl)Cl)cc1 (stereo unspecified)	-0.2	-12.1%	1.4%	-0.4%	0.3	1.0
CC(C)[C@H](NC(=O)C1CCC(CNC(=O)[C@@H]2CCCN2C(=O)OC(C)(C)C)CC1)C(=O)O (stereo partly specified)	-1.2	13.7%	16.0%	·	0.8	-18.0
CC(=O)c1ccc(OCCCC(=O)NCC(c2ccco2)N(C)C)cc1 (stereo unspecified)	2.5	-0.3%	-3.1%	-2.7%	-0.2	5.0
CC1(C)C(=O)Nc2ccccc2N1C(=O)COc1ccc(S(=O)(=O)N2CCOCC2)cc1Cl	-0.7	23.0%	1.3%	-0.8%	0.0	7.9
CCc1c(-c2ccccc2)nc2ccccc2c1C(=O)NCCc1ccccc1	·	·	·	-1.3%	0.1	11.0
COc1ccc(NCc2nnc(SCC(=O)Nc3nc(-c4ccccc4)cs3)n2-c2ccccc2)cc1	1.2	-3.6%	9.6%	0.8%	1.9	12.9
COc1ccccc1CNC(=O)c1cc2cccc3c2n1CC(C)S3 (stereo unspecified)	·	·	·	31.6µM*	3.0	2.6
COCc1c(C)cc(C)c(/C=N/O)c1C	-4.5	8.7%	11.7%	0.4%	3.9	-22.2
O=C(CN1C(=O)NC2(CCc3ccccc32)C1=O)Nc1ccccc1OC(F)F (stereo unspecified)	·	-14.9%	12.2%	0.3%	1.7	-5.6
COc1ccc(NC(=O)c2cccc3c2C(=O)c2ccc(-c4ccc(F)cc4OCc4ccccc4)cc2S3(=O)=O)cc1	·	12.3%	0.6%	-2.0%	-0.4	-1.7
COc1ccc(-c2nnn(CC(=O)N(CCCO)C(C(=O)NC3CCCC3)c3ccncc3)n2)cc1 (stereo unspecified)	4.6	-9.3%	8.7%	1.4%	-0.5	-1.1
O=C(OCC1COc2ccccc2O1)c1c(F)cccc1F (stereo unspecified)	2.9	6.0%	0.2%	1.4%	1.1	-15.7
O=C(Cn1c(=O)n(Cc2ccc(C(=O)NCc3ccc4c(c3)OCO4)cc2)c(=O)c2ccccc21)Nc1ccccc1F	·	·	·	4.1%	0.5	-0.9
CC(C)NC(=O)CN(C(=O)CCC(=O)Nc1ccccn1)c1ccc(F)c(Cl)c1	0.6	-6.7%	2.8%[15.4 µM]	-0.3%	0.0	5.0

# (next part)
Structure	Menin-MLL FL inh	gsp agonist	gsp antag	ClpP mod	TRPML1 ag	TRPML1 blocker
O=c1[nH]c(CCl)nc2cc(-c3ccc(Cl)cc3)sc12	4.8	?	-18.6%	-16.3%	-0.9	19.6
CCOC(=O)N1CCC(=NNC(=O)Cn2ccc(C(F)(F)F)n2)CC1	2.4	11.6%[15.4 µM]	1.8%	·	-0.2	10.3
Cc1cccc(OCC2Cn3c(nc4c3c(=O)[nH]c(=O)n4C)O2)c1 (stereo unspecified)	2.2	-4.5%[15.4 µM]	10.7%	-0.6%	-0.2	26.1
Cc1cc(C(=O)N2CC=C(c3ccccc3)CC2)c2ccccc2n1	·	-11.7%[15.4 µM]	15.3%	1.4%	-0.5	10.7
COC(=O)C1=CN(Cc2ccc(F)cc2)C=C(C(=O)OC)C1c1ccc(O)c(OC)c1	-0.8	-36.0%[inhibitor]	-1.5%	-17.3%	·	·
COc1cccc(C(=O)Nc2cc(OC)ccc2NC(=O)c2ccco2)c1	·	11.6%[15.4 µM]	-4.3%	1.7%	-0.7	-1.1
CCOC(=O)c1sc(NCC2CCCO2)nc1C (stereo unspecified)	3.1	18.5%	4.3%	0.4%	-0.5	-1.0
O=C(Cn1ncc2c3ccccc3n(Cc3cccc(Cl)c3)c2c1=O)NCCC1=CCCCC1	·	·	·	2.6%	-0.3	9.7
Cc1ccsc1CN(C(=O)c1ccc(OCC(C)C)cc1)C1CCS(=O)(=O)C1 (stereo unspecified)	·	·	·	-0.2%	0.3	-2.4
CC(C)CN(CC(C)C)c1nc(N)c(C#N)c(CC#N)c1C#N	10.7	-52.9%[inhibitor]	-0.6%	-20.7%	6.5	-15.4
CC(C)Cc1cc(C(=O)N2CCC(N3CCC(C(=O)N4CCCC4)CC3)CC2)n[nH]1	3.7	13.4%[15.4 µM]	-18.8%	0.1%	0.0	-28.4
CCc1ccc(NC(=O)CCc2nc3sc4c(c3c(=O)[nH]2)CCCC4)cc1	·	1.7%[15.4 µM]	-13.6%	0.8%	-0.1	23.2
O=C(CSc1ncnc2c1nnn2Cc1ccc(F)cc1)NCC1CCCO1 (stereo unspecified)	5.7	?	4.4%	-1.1%	1.1	-22.5
O=C(NC1CCCCC1)C(c1cccs1)N(CCCN1CCOCC1)C(=O)c1ccc(-c2ccccc2)[nH]1 (stereo unspecified)	?	21.7%[15.4 µM]	-7.6%	·	-0.5	18.3
CCC1C(=O)NCCN1C(=O)c1cc(COc2cc(C)ccc2C)on1 (stereo unspecified)	0.0	-2.4%	-9.1%	0.6%	3.3	3.3
O=C1C2CCCN2C(c2ccc(Cl)cc2)N1c1nccs1 (stereo unspecified)	-2.5	-48.1%[inhibitor]	-0.9%	-0.8%	-1.3	11.9
O=C(Nc1ccccc1C(F)(F)F)c1cnccn1	6.7	-7.6%[15.4 µM]	6.9%	-1.5%	1.3	-17.2
CCSc1nnc(-c2ccc(S(=O)(=O)NCc3cccs3)cc2)o1	-0.3	-1.4%	-16.3%	-9.5%	0.1	-15.6
CCn1c(SCC(=O)NC2CC2)nnc1-c1cccc(OC)c1	1.3	8.1%	5.7%	-1.1%	2.1	25.0
COc1ccc(C(=O)NCC(=O)NC2=NCCS2)cc1	0.0	-48.3%[inhibitor]	8.9%	0.1%	0.1	-2.9

# Continued.
Structure	Menin-MLL FL inh	gsp agonist	gsp antag	ClpP mod	TRPML1 ag	TRPML1 blocker
CCC(C)NC(=O)Nc1ccccc1C (stereo unspecified)	4.5	-20.2%	16.0%	0.9%	-0.9	-4.3
COc1cccc(-n2ccn(CC(=O)NCc3ccc(C)cc3)c(=O)c2=O)c1	·	·	·	0.0%	-0.3	8.2
COCC(C)n1c(SCC(=O)N2CCCCC2)nc2ccccc2c1=O (stereo unspecified)	1.4	-21.4%	-3.8%	-0.5%	-0.5	-7.3
CC(C)Nc1nc(Cl)nc(Nc2ccccc2)n1	1.9	-75.4%[inhibitor]	5.7%	·	2.4	4.4
Cc1ccc(N2C(=O)NC(NS(=O)(=O)c3ccc(C)cc3)(C(F)(F)F)C2=O)cc1 (stereo unspecified)	·	12.4%[15.4 µM]	-8.0%	·	-0.2	4.3
CCc1ccc2[nH]c(=O)c(CN(Cc3ccccc3OC)C(=O)Nc3ccccc3OC)cc2c1	1.7	?	-5.7%	-10.6%	1.8	-10.8
Cn1c(=O)c2[nH]c(=S)n(Cc3ccccc3)c2n(C)c1=O	·	15.1%	-8.1%	·	2.0	4.7
CCCCc1cc(=O)oc2cc(OCC(=O)N3CCOCC3)ccc12	2.4	?	-5.6%	·	0.8	0.6
CC(C)CNS(=O)(=O)c1ccc(S(=O)(=O)N2CCC3(CC2)OCCO3)cc1	-1.9	-24.2%	-6.0%	-4.7%	1.7	-12.2
CCc1cc(C(=O)N2CCN(c3ccccc3OC)CC2)sc1C	4.5	-15.8%[15.4 µM]	-7.9%	·	1.3	-2.1
Cc1cc(N2CCN(c3ccccn3)CC2)n2nc(C)nc2n1	·	7.4%	6.4%	-7.1%	1.3	4.9
C=C1CCN([C@@H](Cc2ccccc2)C(=O)NCCCc2ccccc2)S(=O)(=O)c2ccccc21	·	18.0%	-0.3%	-8.4%	0.1	3.8
COC(=O)c1cc(OC)c(OC)cc1NC(=O)CN1C(=O)c2ccccc2C1=O	-5.9	9.1%	3.1%	20.2%	-0.1	-0.4
COC(CNC(=S)Nc1ccc([N+](=O)[O-])cc1)OC	0.2	?	9.7%	-3.4%	0.6	9.8
O=C(CN1CCN(c2ccccc2F)CC1)c1ccc(O)c(O)c1	-1.6	23.9%[15.4 µM]	4.9%	·	0.8	1.3
COc1ccccc1N1CCN(C(CNC(=O)C(=O)NCCCN(C)C)c2cccnc2)CC1 (stereo unspecified)	·	·	·	-2.4%	0.5	-1.2
CCOc1ncccc1C(=O)OCC(=O)c1c[nH]c2ccccc12	·	16.8%	-1.4%	-4.5%	2.6	6.1
CC(C)CCN1CCN(Cc2nc3ccccc3s2)CC1CCO (stereo unspecified)	3.4	4.6%	5.2%	1.3%	-0.1	1.6
O=C(CSc1nc2c(cnn2-c2ccccc2)c(=O)[nH]1)N1CCOCC1	1.6	-13.4%	-2.3%	-1.1%	-0.7	-7.1
O=C(Cn1cc(S(=O)(=O)Cc2ccccc2F)c2ccccc21)NCc1ccccc1Cl	·	·	·	0.7%	2.0	31.7

# Continuation:
Structure	Menin-MLL FL inh	gsp agonist	gsp antag	ClpP mod	TRPML1 ag	TRPML1 blocker
COc1ccc(-c2nc(SC(C)C(=O)NCC3CCCO3)n[nH]2)cc1 (stereo unspecified)	·	6.0%[15.4 µM]	-4.6%	2.9%	0.3	2.9
Fc1cccc(Nc2c3c(nc4ccccc24)CCC3)c1	2.0	37.6%	-18.7%	·	-0.1	-8.1
CS(=O)(=O)N1CCN(c2ccccc2NC(=O)c2cccs2)CC1	-0.5	15.9%	-12.0%	-0.7%	0.2	3.1
CC(=O)C1(O)Cc2c(O)c3c(c(O)c2C(OC2CC(N)C(O)C(C)O2)C1)C(=O)c1c(O)cccc1C3=O (stereo unspecified)	?	·	·	-2.0%	9.8	·

# Screening data: PubChem BioAssay, National Center for Advancing Translational Sciences (NCATS)
